ALR H2O2 inh – human ALR oxidase inhibition via reduced H2O2 | inhibition, % (test concentration not listed) | purified ALR, DTT oxidation, H2O2 HRP-luminol luminescence | hit rate 3.8% among 290,000;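 active means mean and each replicate at 75% or more; inconclusive means only one of the two met; inactive means neither met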;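 further: stock transfer was 7.5 nL into about 7.5 µL; 0% = neutral wells and 100% = wells with inactivated enzyme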
E coli growth – inhibitors of Escherichia coli growth; OD600 absorbance (test concentration not listed); hit rate 0.21% among 330,000; OD600, 23 h; stronger effect = lower value;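 active means OD600 absorbance below the run mean of sample wells minus 3.6 SD, in any replicate, cut at about 0.56 in these data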;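 further: stock transfer was 300 nL into about 60 µL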
HNF4A DNA FP – change in binding of human HNF4 alpha to DNA | hit rate 0.3% among 360,000 | activity change, % at 10 µM | HNF4a-FITC DNA binding, fluorescence polarization, 1 h; in the data active means activity change above about 30%, passing the limit was not always enough;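 further: controls were the assay level and a saturating level of protein; the project sought stronger binding though the title names inhibitors; some compounds called inactive have numbers as strong as hits; positive values seem to mean higher polarization but the record does not say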
Target sequence (P41235 whole entry, looked up): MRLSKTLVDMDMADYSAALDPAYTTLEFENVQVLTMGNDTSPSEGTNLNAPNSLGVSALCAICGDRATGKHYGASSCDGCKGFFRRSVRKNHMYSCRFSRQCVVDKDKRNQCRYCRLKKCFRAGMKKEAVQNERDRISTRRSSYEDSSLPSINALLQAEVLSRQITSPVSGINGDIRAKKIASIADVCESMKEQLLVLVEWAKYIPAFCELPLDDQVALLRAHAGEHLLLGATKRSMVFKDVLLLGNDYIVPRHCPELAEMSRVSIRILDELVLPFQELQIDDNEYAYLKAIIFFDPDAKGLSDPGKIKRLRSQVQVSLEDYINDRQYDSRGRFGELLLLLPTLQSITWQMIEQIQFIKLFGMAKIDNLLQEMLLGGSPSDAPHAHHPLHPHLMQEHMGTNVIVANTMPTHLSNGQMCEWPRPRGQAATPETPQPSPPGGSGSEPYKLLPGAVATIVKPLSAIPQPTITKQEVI
Vif TR-FRET – inhibitors of Vif binding to APOBEC3G peptide, primary screen, biochemical, TR-FRET, GST-Vif 1-94, biotin-A3G peptide, dose response retest (AID 1117319); TR-FRET GST-Vif / biotin-A3G peptide binding; higher % means a stronger effect; test concentration not given here; strong numbers were not always called active; one-dose inhibition, %; IC50 in µM for titrated hits; hit rate 0.57% among 260,000;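 active means above the screen mean plus three standard deviations and confirmed in dose response; inconclusive means results disagree or hit not tested in dose response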;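 further: Vif residues 1-94 fused to GST binding biotinylated APOBEC3G peptide 110-148; 0% = full assay without inhibitor and 100% = GST in place of GST-Vif; retest series ran down from 100 µM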
MLL AF4-AF9 inh – inhibitors of human MLL-AF4/AF9 interaction. AlphaScreen, biotin-AF4 peptide binding to FLAG-AF9. inhibition, % at 10 µM. AID 651704. hit rate 0.47% among 350,000;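 active means every replicate reaching a set inhibition limit, whatever the replicate mean, cut at about 25% in these data; inconclusive means mean inhibition reaches that limit but some replicates miss it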;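 further: 0% = plate neutral control median and 100% = total signal loss; the record names both 10 and 1 µM as test concentration; the first replicate is given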
Target sequence (P42568 whole entry, looked up): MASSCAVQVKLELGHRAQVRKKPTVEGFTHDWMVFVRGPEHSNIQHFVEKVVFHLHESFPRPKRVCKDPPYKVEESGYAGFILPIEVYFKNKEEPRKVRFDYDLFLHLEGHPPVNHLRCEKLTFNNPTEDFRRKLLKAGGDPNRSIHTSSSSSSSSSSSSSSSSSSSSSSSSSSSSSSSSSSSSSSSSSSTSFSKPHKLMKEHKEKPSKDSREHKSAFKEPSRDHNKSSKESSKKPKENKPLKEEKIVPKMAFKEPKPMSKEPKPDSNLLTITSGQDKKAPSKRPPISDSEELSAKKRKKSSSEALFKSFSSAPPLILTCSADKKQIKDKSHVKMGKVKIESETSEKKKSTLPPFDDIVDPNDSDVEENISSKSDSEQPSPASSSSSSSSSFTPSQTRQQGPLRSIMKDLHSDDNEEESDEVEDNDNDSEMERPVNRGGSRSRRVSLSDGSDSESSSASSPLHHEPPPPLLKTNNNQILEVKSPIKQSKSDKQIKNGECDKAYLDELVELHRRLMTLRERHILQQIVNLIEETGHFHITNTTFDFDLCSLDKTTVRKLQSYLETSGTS
FGF22 binding – FGF22 (human) thermal shift binding; Q9HCT0; recombinant FGF22 thermal shift, SYPRO orange fluorescence; percent of sucrose octasulfate shift, DMSO zero; calls only at 9.99 µM; hit rate 1.5% among 340,000; AID 651658;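 active means melting point raised past a set limit in the mean and every replicate; inconclusive means no clear call; three in four hits are not shown here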
rRNA inh HTS – selective bacterial rRNA inhibition in E. coli; E. coli WT GFP vs humanized-ribosome RFP mutants, fluorescence, 24 h; stronger effect = lower value; DMSO median 0, no signal -100; GFP signal change (wild-type ribosome), % (no concentration beside the values); hit rate 1.6% among 350,000;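 active means significant combined selectivity score with lowered wild-type GFP, culture density cut under 30%, mutant RFP and density less affected; inactive means any of these conditions unmet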; further: one replicate is shown; some compounds called inactive have numbers as strong as hits
rRNA inh HTS OD600 – further read-out of rRNA inh HTS, marked with its call; OD600 change, %; measured here: OD600 growth;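 optical density of the mix in the first replicate; 0 = DMSO median and -100 = no signal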
rRNA inh HTS RFP – second read-out of rRNA inh HTS, no call of its own (marks repeat the call); RFP signal change, %; measured here: RFP humanized mutant strains;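 first replicate; 0 = DMSO median and -100 = no signal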
* hit, by the source's call; i = inactive; ? = inconclusive; nt = not tested or not shown; + = active, no number; & = joins results of further samples. Only part of the results is shown (hit frequency here may not be typical).

SMILES	ALR H2O2 inh	E coli growth	HNF4A DNA FP	Vif TR-FRET	MLL AF4-AF9 inh	FGF22 binding	rRNA inh HTS	rRNA inh HTS OD600	rRNA inh HTS RFP
C[C@@H]1CCCCO[C@@H](CN(C)C(=O)NC2CCCCC2)[C@H](C)CN([C@H](C)CO)C(=O)c2cc(NC(=O)Cc3ccccc3)ccc2O1	nt	nt	nt	nt	3.1	i	-3	-7	4.3
O=C(C[C@H]1CC[C@H]2[C@@H](COC[C@@H](O)CN2C(=O)c2ccc(F)cc2)O1)NCc1cccc(F)c1	nt	nt	nt	nt	-0.5	i	1	2	-0.6
Cc1noc(C)c1S(=O)(=O)Nc1ccc2c(c1)C(=O)N([C@H](C)CO)C[C@H](C)[C@@H](CN(C)S(=O)(=O)c1ccccc1)O2	-1	nt	-5.7	nt	-1.5&-26	i	-1&-4	-4&-5	0.8&17
COc1cccc(C2CC(c3ccccc3C)n3nc(N)nc3N2)c1 (centres undefined)	70	0.71	0.1	-3%	-1.4	i	6	7	-0.1
CCOC(=O)N1CCN(CC(O)COC2CC(C)CC(C)(C)C2)CC1 (centres undefined)	5	0.78	0.6	1%	nt	nt	nt	nt	nt
COc1ccccc1COC(=O)Nc1c(C)nn(C)c1Cl	6	0.71	2.8	-3%	nt	nt	nt	nt	nt
O=C(Nc1cccc(F)c1)N[C@H]1CC[C@H](CCNS(=O)(=O)c2cccc(Cl)c2)O[C@H]1CO	nt	nt	nt	nt	0.7	i	3	-21	-8.0
COc1cc(CCCN2CCNC[C@@H]2C(C)O)cc(OC)c1OC (some centres undefined)	10	0.77	1.9	nt	7.7	i	6	7	-5.9
CCCCC(OC(=O)c1ccco1)C(=O)NCc1ccc(C)cc1 (centres undefined)	0	0.63	0.1	nt	-28	i	3	13	-0.4
CCOCCn1c(=NC(=O)c2cc3ccccc3oc2=O)sc2cc(S(N)(=O)=O)ccc21	4	nt	1.2	-83%	nt	nt	nt	nt	nt
COc1ccc(C(=O)Nc2cc(=O)[nH]c3ncnn23)cc1	nt	0.7	-0.8	-7%	-13	i	6	6	0.0
O=C(CSc1n[nH]c(-c2cccs2)n1)NCCc1ccccc1	-20	0.66	-0.5	-1%	-2.2	i	-5	-13	-6.3
O=C(CC1CCCCC1)N1CCC(c2nc(-c3ccc(S(=O)(=O)N4CCCC4)cc3)no2)CC1	-6	0.67	0.0	4%	nt	nt	nt	nt	nt
COc1ccc(/C=N\Nc2ncc(F)c(N3CCOCC3)n2)cc1OC	-3	nt	-1.6	-6%	-0.5	i	5	12	1.1
Cc1ccc(S(=O)(=O)N[C@H]2CC[C@H](CCNC(=O)CN3CCOCC3)O[C@H]2CO)cc1	nt	nt	nt	nt	-0.7	i	0	2	-1.6
C=CCn1c(N)cc(=O)nc1SCC(=O)NC(C)c1ccccc1 (centres undefined)	-3	0.7	5.2	3%	nt	nt	nt	nt	nt
NS(=O)(=O)c1ccc2nc(NC(=O)CS(=O)(=O)c3ccccc3)sc2c1	-3	0.64	-1.9	nt	1.3	i	11	5	1.6
CC(=O)NCCNC(=O)c1ccc2c(c1)S(=O)(=O)c1ccccc1C2=O	0	0.7	1.7	nt	-0.2	i	2	-1	0.3
COc1ccccc1N1CCN(C(=O)CN(c2ccc(C)c(C)c2)S(C)(=O)=O)CC1	33	0.72	1.5	0%	nt	nt	-6	-4	-0.2
O=C(COc1ccccc1Br)NC1CC1	-11	0.68	-1.7	-5%	-6.8	i	5	9	-1.0
C[C@@H]1CN([C@H](C)CO)C(=O)c2cc(C#CC3CC3)cnc2O[C@@H]1CN(C)C	nt	nt	nt	nt	-3.5	i	4	7	-0.8
CC1(c2ccc3noc(-c4cccc(F)c4)c3c2)OCCO1	-24	0.71	0.0	-2%	4.9	i	1	4	-3.8
COC(=O)[C@@]1(Cc2ccc(F)cc2)[C@H]2c3cc(C(=O)N(C)C)n(CCc4c[nH]c5ccc(OC)cc45)c3C[C@H]2CN1C(=O)c1ccccc1	nt	nt	1.2	nt	4.5	i	21	14	2.7
O=C(COC(=O)C12CC3CC(CC(O)(C3)C1)C2)Nc1ccc(Br)cc1F	-2	0.68	-3.6	nt	0.9	i	-17	-12	-1.5
COc1cccc(NC(=O)CN(C)C(=O)c2ccc(Cl)c(S(=O)(=O)N3CCCCCC3)c2)c1	nt	0.67	-0.6	19%	-14	i	-13	-47	-2.5
COc1ccc(C(C2C(=O)CC(C)(C)CC2=O)C2C(=O)CC(C)(C)CC2=O)cc1CO	96*	0.67	1.3	-3%	-1.7	i	16	0	-1.9
O=C1CCCc2nc(N3CCN(C(=O)c4ccco4)CC3)ncc21	-13	0.7	3.0	nt	-2.1	i	16	15	-0.1
CCCCCOC(=O)CC(C(=O)OCCCCC)N1CCCCC1 (centres undefined)	5	0.73	-0.5	-4%	nt	nt	nt	nt	nt
CN1CCN(S(=O)(=O)c2ccc(N(C)Cc3cccc(F)c3)nc2)CC1	-1	0.68	3.2	7%	0.7	i	nt	nt	nt
COc1ccc(S(=O)(=O)N(C)C[C@@H]2Oc3ncc(-c4ccncc4)cc3C(=O)N([C@H](C)CO)C[C@H]2C)cc1	nt	nt	nt	nt	-3.3	i	-3	-4	-2.9

Part of the list above, bar-delimited:
smiles | ALR H2O2 inh | E coli growth | HNF4A DNA FP | Vif TR-FRET | MLL AF4-AF9 inh | FGF22 binding | rRNA inh HTS | rRNA inh HTS OD600 | rRNA inh HTS RFP
O=C(COC(=O)C12CC3CC(CC(O)(C3)C1)C2)Nc1ccc(Br)cc1F | -2 | 0.68 | -3.6 | nt | 0.9 | i | -17 | -12 | -1.5
COc1cccc(NC(=O)CN(C)C(=O)c2ccc(Cl)c(S(=O)(=O)N3CCCCCC3)c2)c1 | nt | 0.67 | -0.6 | 19% | -14 | i | -13 | -47 | -2.5
COc1ccc(C(C2C(=O)CC(C)(C)CC2=O)C2C(=O)CC(C)(C)CC2=O)cc1CO | 96* | 0.67 | 1.3 | -3% | -1.7 | i | 16 | 0 | -1.9
O=C1CCCc2nc(N3CCN(C(=O)c4ccco4)CC3)ncc21 | -13 | 0.7 | 3.0 | nt | -2.1 | i | 16 | 15 | -0.1
CCCCCOC(=O)CC(C(=O)OCCCCC)N1CCCCC1 (centres undefined) | 5 | 0.73 | -0.5 | -4% | nt | nt | nt | nt | nt

Remaining list, next part.
SMILES	ALR H2O2 inh	E coli growth	HNF4A DNA FP	Vif TR-FRET	MLL AF4-AF9 inh	FGF22 binding	rRNA inh HTS	rRNA inh HTS OD600	rRNA inh HTS RFP
O=C(c1ccccc1)C(O)(Cc1ccccc1)c1ccccc1 (centres undefined)	7	0.71	-2.8	nt	-3.9	i	-45	-51	-8.9
CC(=O)Nc1cccc(NC(=O)c2cc(-c3cccnc3)nc3ccc(Br)cc23)c1	-8	0.68	3.9	-10%	6.6	i	38	13	2.9
CO[C@H]1CN(C)C(=O)c2ccc(NS(=O)(=O)c3ccc(Cl)cc3)cc2OC[C@H](C)N(C(=O)NC(C)C)C[C@@H]1C	nt	nt	nt	nt	1.2	i	-2	-2	1.9
CC(=O)NS(=O)(=O)c1ccc(NC(=O)c2ccc3c(c2)OCO3)cc1	nt	0.67	-0.3	nt	-2.0	i	14	18	1.9
O=C(NCCn1ccc2ccccc21)c1ccc2c(c1)OCO2	-18	0.69	0.4	5%	3.0	i	2	6	4.9
CCCS(=O)(=O)NC(=O)C1(C)CCN(C(=O)c2oc3ccccc3c2C)C1 (centres undefined)	nt	nt	1.9	nt	1.6	i	1	1	1.8
CN(C)C(=O)c1ccc(NC(=O)c2ccc(-c3ccc(Cl)cc3)o2)cc1	-4	nt	5.4	nt	-2.5	+	-44	-70	-1.9
COc1ccc(C)cc1S(=O)(=O)NC1CCCCC1C (centres undefined)	-18	0.71	2.2	-1%	nt	nt	nt	nt	nt
OC[C@@H]1CN(Cc2ccc3c(c2)OCO3)C[C@H](n2cnc3c(NC4CCC4)ncnc32)O1	nt	nt	4.7	nt	5.2	i	-14	-8	5.6
CC(=O)c1ccc(OCc2ncc(C(F)(F)F)cc2Cl)cc1	-19	0.66	2.8	nt	-1.5	i	nt	nt	nt
O=c1cc[nH]c2cc(Cl)ccc12	-3	0.64	0.2	-10%	-3.6	i	8	4	-0.9
CCOC(=O)c1ccc(NC(=O)Nc2ccc(OC)c(OC)c2)cc1	-30	0.7	3.0	-7%	nt	nt	nt	nt	nt
O=C(NCc1ccc(Cl)cc1)N1CCN(Cc2ccccc2)CC1	0	0.65	-0.8	nt	3.6	i	-2	3	0.7
CC1=C(OC(=O)c2ccccc2)C(C)(C)C(c2ccc(Br)cc2)OC1=O (centres undefined)	-2	0.79	1.1	-5%	nt	nt	nt	nt	nt
CCCN(CCC)CCNC(=O)c1cn(C)c(=O)c2c1c1ccccc1n2C	nt	0.65	-0.6	nt	0.7	i	0	7	-0.6
Cc1ccc(Cl)cc1N1CCN(Cc2cc(=O)n3ccsc3n2)CC1	nt	0.68	-2.2	4%	1.5	i	-29*	-20*	-6.2*
CCOC(=O)CN(C(=O)COc1nc(-c2ccccc2)cc(C)c1C#N)c1ccc(C)cc1	-4	0.71	3.3	-8%	-4.2	i	23	-3	0.0
C[C@H]1CN([C@@H](C)CO)C(=O)c2cc(NC(=O)Nc3cccc4ccccc34)ccc2O[C@@H]1CN(C)C(=O)Nc1ccccc1	nt	nt	nt	nt	1.4	i	-3	0	0.1
COc1ccc(S(=O)(=O)N2CCOCC2)cc1NC(=O)COC(=O)CC1CC2CCC1C2 (centres undefined)	-2	0.68	-1.3	1%	-1.6	i	-2	-7	7.5
O=C(Nc1ccc(-c2nc3ccccc3[nH]2)cc1)c1ccco1	-2	0.63	0.7	1%	nt	nt	nt	nt	nt
Cn1c(SCC(=O)c2ccc3c(c2)OCCO3)nnc1C(F)(F)F	45	0.64	1.0	-4%	-0.5	i	nt	nt	nt
CC12CCC(=O)C=C1CCCC2=O (centres undefined)	nt	0.64	3.2	-5%	-3.2	i	8	15	-0.2
CC(C)Cn1c(-c2cccnc2)nc2c1c(=O)[nH]c(=O)n2CC(C)C	-11	0.61	-0.4	-4%	1.7	i	8	5	0.4
C[C@@H]1CN([C@@H](C)CO)C(=O)Cc2cc(NC(=O)Nc3ccccc3)ccc2O[C@@H]1CN(C)Cc1ccc(-c2ccccc2)cc1	nt	nt	nt	nt	-0.6	i	3	1	-0.9
COc1ccc(-n2ncc3c(NCc4cccnc4)ncnc32)cc1	-6	0.66	-2.7	-2%	-3.3	i	-18	-20	-5.0
CCOc1ccc(N2CC(C(=O)NCc3ccccc3)CC2=O)cc1 (centres undefined)	-6	0.71	1.5	10%	1.9	i	12	3	3.1
CC1(C)CC(=O)C2=C(C1)N(Cc1ccco1)C(=O)C2(O)C(F)(F)F (centres undefined)	3	0.71	1.7	?	nt	nt	nt	nt	nt
O=C(COC(=O)c1ccc(S(=O)(=O)N2CCOCC2)cc1)NCc1cccs1	-1	0.7	-3.7	-1%	-2.0	i	23	25	1.1
O=C(NCCc1c[nH]c2ccccc12)C(=O)NCC1OCCN1S(=O)(=O)c1cc(F)ccc1F (centres undefined)	-1	0.64	4.0	0%	2.2	i	-13	-7	3.1
CC(C)(C)c1ccc(C(=O)CSc2n[nH]c(=O)[nH]c2=O)cc1	24	0.67	2.6	3%	nt	nt	nt	nt	nt
CCOC(=O)c1cn(CC)c2cc(Cl)c([N+](=O)[O-])cc2c1=O	4	0.63	1.3	?	nt	nt	nt	nt	nt
S=C(NCCc1ccccc1)Nc1nccs1	nt	0.7	-3.5	nt	-64	i	-22*	-8.5*	-4.8*
O=C(c1ccccc1)N1CCC(CC2CC(c3ccc(Cl)cc3)=NO2)(C(=O)NCC2CCCCC2)CC1 (centres undefined)	-8	0.72	1.3	nt	-5.0	i	-8	-9	0.7

Compound activity (PubChem BioAssay)
